Screening data from PubChem BioAssay.
KCNQ2 pot: potentiators of rat KCNQ2 potassium channel | O88943 | CHO-K1 KCNQ2, FluxOR thallium flux fluorescence; stronger effect = higher value | B-score at 10 µM | 0.54% of 310,000 active;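 active = fluorescence ratio B-score at least 3 SD of library B-scores, with initial fluorescence B-score within 3 SD, cut at about 5.3 in these data; same plate scores as AID 2156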;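 also: B-score of peak minus minimum over baseline fluorescence ratio after K+ and Tl+ stimulus; positive B-score means potentiation of KCNQ2 with more thallium influx and brighter signal; only the inactives scoring about 0 or higher are listed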
Target sequence (O88943 whole entry, looked up): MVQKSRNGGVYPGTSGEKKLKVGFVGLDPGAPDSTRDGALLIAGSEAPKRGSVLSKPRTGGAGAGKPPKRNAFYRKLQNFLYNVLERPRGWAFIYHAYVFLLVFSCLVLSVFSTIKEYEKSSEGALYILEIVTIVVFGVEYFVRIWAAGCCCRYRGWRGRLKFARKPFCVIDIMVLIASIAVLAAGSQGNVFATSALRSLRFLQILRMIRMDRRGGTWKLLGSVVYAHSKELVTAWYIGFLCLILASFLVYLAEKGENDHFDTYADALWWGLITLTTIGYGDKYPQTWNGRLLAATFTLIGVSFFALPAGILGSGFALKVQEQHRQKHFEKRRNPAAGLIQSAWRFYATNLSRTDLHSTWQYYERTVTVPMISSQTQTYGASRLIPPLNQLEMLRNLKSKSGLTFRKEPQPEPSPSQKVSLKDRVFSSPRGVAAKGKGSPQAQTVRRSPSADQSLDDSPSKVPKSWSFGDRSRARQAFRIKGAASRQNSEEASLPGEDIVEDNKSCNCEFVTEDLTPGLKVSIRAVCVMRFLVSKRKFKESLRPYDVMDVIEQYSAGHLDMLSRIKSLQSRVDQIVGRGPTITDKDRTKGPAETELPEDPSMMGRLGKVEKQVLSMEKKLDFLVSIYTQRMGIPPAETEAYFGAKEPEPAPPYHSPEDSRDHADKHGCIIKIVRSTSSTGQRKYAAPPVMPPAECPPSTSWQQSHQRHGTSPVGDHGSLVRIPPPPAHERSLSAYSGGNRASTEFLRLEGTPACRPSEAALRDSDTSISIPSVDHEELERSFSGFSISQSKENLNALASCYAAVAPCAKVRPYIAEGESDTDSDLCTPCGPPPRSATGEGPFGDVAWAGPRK
KCNQ2 pot baseline: second read-out of KCNQ2 pot, no call of its own (marks repeat the call); B-score; compound at 10 µM; measured here: initial fluorescence intensity artifact check;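 brightness before thallium and not channel activity; 0 = typical well and far values either way flag optical interference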
* hit, by the source's call. The list is partial, so the mix of outcomes need not match the whole.

The line under a structure holds: KCNQ2 pot | KCNQ2 pot baseline
CCCn1nnnc1SCC(=O)c1ccc2c(c1)OCCO2
  1.13 | -1.24
Cc1cc(C)c2oc(-c3cccc(N)c3)nc2c1
  2.74 | -0.05
COc1ccc(NC(C)=O)cc1S(=O)(=O)N1CCc2ccccc21
  1.67 | 0.68
COc1ccc2c(c1)CCc1c(C(=O)Nc3ccc(OC)c(OC)c3)noc1-2
  1.31 | 0.39
CC(C)CCNC(=O)c1cccnc1Sc1ccccc1
  3.44 | 2.09
O=C(CCC1CCN(C(=O)c2cncs2)CC1)Nc1ccccc1
  0.35 | -0.37
CCCN1CCc2c(sc(NC(=O)c3ccc(S(=O)(=O)N(C)c4ccccc4)cc3)c2C(N)=O)C1
  0.01 | 4.34
CCOC(=O)N1CCN(C(=O)CS(=O)(=O)c2cn(Cc3ccccc3Cl)c3ccccc23)CC1
  0.57 | -1.44
COc1ccccc1CNC(=O)COC(=O)Cc1ccc(F)cc1
  2.04 | -1.29
COc1ccc(-n2nc(C(=O)NCC(=O)N3CCC(C)CC3)c3ccccc3c2=O)cc1
  0.08 | 0.03
Cc1ccc(O)c(NC(=S)NC(=O)Cc2ccc(Cl)cc2)c1
  7.03* | -0.09*
O=C(NCCN1CCN(C(=O)c2c(F)cccc2F)CC1)C(=O)Nc1ccc(Cl)cc1
  1.55 | 0.36
CCOc1ccc(Nc2cc(C)nc(N3CCOCC3)n2)cc1
  1.64 | -0.61
Cc1cc(C)c2c(c1)OC(O)(C(F)F)CC2=O (configuration not stated)
  0.39 | 0.44
COCc1cc(C)nc(N2CCNCC2)c1C#N
  0.01 | 2.57
CCCCNC(=O)C1CCCN1S(=O)(=O)c1cccc2nsnc12 (configuration not stated)
  0.62 | -0.15
CSCCC(NC(=O)c1ccco1)C(=O)N1CCC(C(N)=O)CC1 (configuration not stated)
  0.86 | 1.08
CC(=O)c1cccc(NC(=O)c2cccc(NC(=O)c3ccco3)c2)c1
  0.87 | 1.32
Cc1nc(=O)c(-c2ccccc2)c(C)n1-c1ccccc1Cl
  0.15 | -0.75
CCN(C(=O)COC(=O)c1cc2c(s1)CCCCC2)C1CCS(=O)(=O)C1 (configuration not stated)
  0.04 | 0.07
COc1cccc(CN2CC(C(=O)NCc3ccc(C)o3)CCC2=O)c1 (configuration not stated)
  0.99 | 3
Cn1cccc1C(=O)C(=O)Nc1cc(Cl)cc(Cl)c1
  1.33 | 0.46
COc1cccc(-c2nnn(CC(=O)N(CC(C)C)C3CCS(=O)(=O)C3)n2)c1 (configuration not stated)
  1.03 | -0.52
CC(=O)Nc1ccc(S(=O)(=O)NCC2CCC(C(=O)NCCCN3CCCC3=O)CC2)cc1 (configuration not stated)
  0.64 | 0.4
COc1ccc2nc(NC(=O)CSc3nc(C)cc(=O)[nH]3)sc2c1
  2.77 | -0.27
Cc1cc(C)cc(OCC(=O)NNC(=O)c2cc3ccccc3o2)c1
  2.77 | -0.05
O=C(O)c1cc(NC(=S)NC(=O)C(c2ccccc2)c2ccccc2)ccc1Cl
  1.33 | -0.94
CCOC(=O)c1[nH]c(C)c(C(=O)N2CCN(c3ccccc3OC)CC2)c1C
  0.81 | -0.07
Cc1cc(C)c(NC(=O)CSc2nc3ccc(NC(=O)CSc4nnnn4-c4ccccc4)cc3s2)c(C)c1
  1.54 | -0.86
Cc1ccc(NC(=O)C2CCCN(C(=O)c3ccc(Cl)cc3)C2)c(C)c1 (configuration not stated)
  0.51 | 0.17
Cc1c(C)n2c(SCC(=O)NC3CCCCC3)nnc2[nH]c1=O
  1.16 | 0.08
COc1cccc(CNC(=O)C2CCCN(S(=O)(=O)c3cccc4nonc34)C2)c1 (configuration not stated)
  0.18 | 0.85
COCCNS(=O)(=O)c1ccc(C)c(C)c1C
  0.93 | -0.03
COc1ccc(OCc2nnc(SCC(=O)c3c(N)n(C)c(=O)n(C)c3=O)n2-c2ccccc2F)cc1
  1.09 | -2.59
CCOC(=O)C1=C(C)N(CCCCCC(=O)O)C(=O)NC1c1ccccc1OS(=O)(=O)c1ccc(C)cc1 (configuration not stated)
  0.54 | -0.07
COC(=O)N/N=C/c1ccc([N+](=O)[O-])s1
  0.19 | 1.92
CCOc1ccccc1Oc1cn[nH]c1-c1ccc(OCC(=O)NN)cc1O
  0.45 | -1.3
Cc1cccc(NS(=O)(=O)c2cccc(C(=O)N3CC(C)OC(C)C3)c2)c1 (configuration not stated)
  0.8 | 0.4
O=[N+]([O-])c1ccc(N2CCCC2)nc1
  0.98 | -1.16
COc1ccc(CCN2CC(C(=O)N(C)CCn3nc(C)cc3C)CCC2=O)cc1 (configuration not stated)
  0.65 | 0.05
Cc1c(Cl)cccc1NC(=O)CSc1sc2c(O)cc(=O)[nH]c2c1C#N
  2.06 | -0.09
Cc1ccc(NC(=O)CSc2nnc(-c3cccs3)o2)cc1S(=O)(=O)N1CCCCC1
  0.06 | -0.53
Nc1ccc2oc(-c3ccc4nc[nH]c4c3)nc2c1
  1.98 | 0.89
O=C(COC(=O)c1ccc(S(=O)(=O)NCc2ccco2)cc1)Nc1ccc(OC(F)F)cc1
  1.6 | -1.97
C=CCc1cccc(CNc2ccc(Br)cc2)c1O
  0.03 | 0.58
Cc1oc(-c2ccc(Cl)cc2)nc1CN1CCCC(C(=O)NCc2cccnc2)C1 (configuration not stated)
  0.12 | -0.74
CS(=O)(=O)c1ccc2nc(NC(=O)c3cc([N+](=O)[O-])cc([N+](=O)[O-])c3)sc2c1
  0.69 | 0.31
CCOc1ccc(NC(=O)NCCN2CCN(c3ccccc3F)CC2)cc1
  0.18 | 0.95
O=C(Nc1ccc(Cl)cc1)N1CCOC12CCCCC2
  3.57 | -1.96
CCn1c(SCC(=O)Nc2nccs2)nnc1-c1ccncc1
  0.4 | 0.75

(cont.)
The line under a structure holds: KCNQ2 pot | KCNQ2 pot baseline
COc1cccc(NC(=O)Nc2cc(C(=O)NCC3CCCO3)ccc2N2CC3CC(C2)c2cccc(=O)n2C3)c1 (configuration not stated)
  0.1 | -1.06
Cc1ccc(NS(=O)(=O)c2ccc(C(=O)NCc3cccnc3)cc2)cc1
  0.03 | -0.26
CCCc1cc(=O)oc2cc(C)cc(OCC(=O)NCc3ccccn3)c12
  0.31 | -1.43
CCOc1ccc(-c2nnc(NC(=O)Cc3cc(OC)c(OC)c(OC)c3)o2)cc1
  1.39 | -0.19
Cc1ccc(C(=O)NCCNc2ccc(Cl)cc2[N+](=O)[O-])o1
  0.88 | 0.76
Cc1ccc(S(=O)(=O)N2CCN(S(=O)(=O)c3cccs3)CC2)cc1
  0.45 | 1.5
COc1nc(NCCc2ccc(OC)c(OC)c2)nc(NC(C)(C)CO)n1
  1.89 | 0.13
CC1CCN(Cc2ccc(-c3nn[nH]n3)cc2)CC1
  0.6 | 0.62
Cc1cc2oc(=O)cc(CN3CCOCC3)c2cc1C
  0.1 | 0.62
CCOc1cc(/C=N/N=C2/NC(=O)C(CC(=O)O)S2)ccc1OS(=O)(=O)c1ccc(C)cc1 (configuration not stated)
  0.08 | -1.2

Other structures follow.
Structure	KCNQ2 pot	KCNQ2 pot baseline
CCOc1ccc2[nH]c(=O)c(CN(CCc3ccccc3)C(=O)c3cnccn3)cc2c1	0.08	-0.5
Cn1c(=O)c2c(ncn2CC(=O)NC(C)(C)C)n(C)c1=O	0.08	0.8
Cc1ccc(CCC(=O)Nc2ncc(Cc3cccc(Cl)c3Cl)s2)o1	0.55	0.01
COC(=O)c1c(C(=O)OC)c(-c2ccccc2)n2c1CS(=O)C2 (configuration not stated)	0.97	0.2
Cc1nc2ccccc2c2nc(N)nn12	1.31	-2.01
CCn1c(=NC(=O)CCS(=O)(=O)c2ccccc2)sc2cccc(OC)c21	0.3	-0.02
C#CC[N+]1(CC#Cc2ccccc2)CCCC1	1.03	-0.5
Cc1cccc(-c2n[nH]c(=S)n2/N=C/c2cccs2)c1	2.99	1.16
c1ccc(C2CCC(N3CCC(N4CCCCC4)CC3)CC2)cc1 (configuration not stated)	0.46	-1.19
NC(=O)c1cc([N+](=O)[O-])ccc1NCCN1C(=O)c2ccccc2C1=O	0.35	-1.88
CCCn1c(N)c(N(CCOC)C(=O)c2ccc(-c3ccc(Cl)cc3)o2)c(=O)[nH]c1=O	0.03	-1.02
CCCCOc1c(Cl)cc(CNC(C)(C)CO)cc1OCC	0.2	1.13
COc1cc(/C(C)=N/NC(=O)c2nnn(-c3nonc3N)c2-c2cccs2)ccc1O	0.06	0.58
Cc1ccc(S(=O)(=O)NCC(=O)NCC(=O)N(C)Cc2ccc3ccccc3c2)cc1C	1.74	-0.46
COCCN(C(=O)c1cccc(-n2cnnn2)c1)c1c(N)n(CC(C)C)c(=O)[nH]c1=O	0.63	-0.02
O=C(NCC1COc2ccccc2O1)C1(c2ccccc2)CCCC1 (configuration not stated)	0.43	0.43
CN(C)c1ccc(C2N(C)C(=O)c3ccccc3N2C)cc1 (configuration not stated)	0.24	0.04
Cc1nc2ccccc2c(=O)n1NC(=O)c1cccc([N+](=O)[O-])c1	1.28	0.14
CC1CC(=O)Nc2ccccc2N1S(=O)(=O)c1cccs1 (configuration not stated)	0.46	0.58
O=C(Nc1ccccc1F)c1cnccn1	1.63	0.11
CC(=O)Nc1nnc(SCC(=O)N2CCCc3ccccc32)s1	2.24	0
C/C(CC(=O)NCc1ccc(Cl)cc1)=N\NC(=O)c1ccccc1F	1.42	-0.66
COc1ccccc1N/C(N)=N/c1nc(C(F)(F)F)cc(=O)[nH]1	0.46	-0.26
CCO[C@@H]1OC(C(=O)Nc2ccccc2)=C[C@H](c2ccccc2)[C@H]1CCCO	0.74	1.12
Cc1ccc(NS(=O)(=O)c2cccc(C(=O)N3CCOCC3)c2)cc1	0.16	-0.56
O=C(NC1CCN(Cc2ccccc2)CC1)c1ccccc1Cl	0.43	0.76
Cc1ccccc1Nc1c(-c2ccc(N3CCOCC3)cc2)nc2ncccn12	2.66	-0.76
CCc1ccc(CCC(=O)Nc2nc(CC(C)=O)ns2)o1	0.03	-0.07
Cc1ccc(-c2nnc(COC(=O)c3cc(=O)[nH]c4ccccc34)o2)cc1	0.87	0.46
CC(=O)Nc1cccc(NC(=O)CCn2c(=O)sc3ccccc32)c1	0.29	-0.2
Cc1ccc(-c2csc3nc4ccc(C(=O)NCCO)cc4c(=O)n23)cc1	1.02	0.46
O=C(C1CCCN(CCCc2ccccc2)C1)N1CCCCCC1 (configuration not stated)	1.91	0.37
O=C(NCCSc1c[nH]c2ccccc12)c1ccc(Br)o1	1.25	-0.02
CCOc1ccc(CNC2CCCCCCC2)cc1OC	1.36	-0.13
CC(=O)NN1C(=O)c2ccccc2NC1c1ccco1 (configuration not stated)	1.15	1.74
Cc1ccc(/C=C/C(=O)O)cc1S(=O)(=O)N(CCO)CCO	1.11	-0.01
COc1ccc(S(=O)(=O)Nc2ccc(-c3ccc4nncn4n3)cc2)c(OC)c1	0.03	-0.74
O=C(c1cc2ccccc2oc1=O)N1CCN(c2ccccn2)CC1	0.42	0.24
O=C(NCc1ccc2c(c1)OCO2)c1ccc(CS(=O)Cc2cccc(Cl)c2)o1 (configuration not stated)	1.56	0.82
Cc1ccc(-c2cc(Cc3ccccn3)c(=O)[nH]n2)cc1	1.12	-0.06
C=CCn1c(=S)[nH]c2nc3c(cc2c1=O)CCCC3	4.44	1.07
CN1CCN(C(=O)CCN2C(=O)/C(=C\c3ccccc3F)SC2=S)CC1	1.16	1.47
Clc1ccc2c(c1)-c1[nH]ncc1CS2	1.37	-0.74
O=C(COc1ccccc1-c1ccccc1)N/N=C/c1ccncc1	1.08	0.05
O=C(O)c1nccnc1C(=O)NCc1csc2ccc(Cl)cc12	0.44	-0.05
O=C(COC(=O)/C=C/c1cccc(C(F)(F)F)c1)NCc1ccccc1	0.04	0
N#Cc1cnn(-c2cccc(Cl)c2)c1N	1.51	0.08
O=C(COc1ccc2ccc(=O)oc2c1)NC(Cc1ccc(Cl)cc1)C(=O)O (configuration not stated)	1.06	-0.05
CCOCCNC(=O)c1ccccc1C(=O)NCCOCC	0.97	-0.32
CCC1CCCCN1CCCNC(=O)c1c(O)nc2ccccn2c1=O (configuration not stated)	1.81	-0.07

Remaining list, next part
Structure	KCNQ2 pot	KCNQ2 pot baseline
C#CCSc1nncn1C(=O)/C=C/c1ccccc1	1.98	-1.65
CCN1CCN(C(=O)CSc2ccc(C)cc2)CC1	0.92	-0.38
CCCc1c(C)c2cccc(C)c2[nH]c1=O	0.08	-0.32
CC(C)c1onc(C(=O)Nc2sc3c(c2C#N)CCC3)c1[N+](=O)[O-]	2.2	-1.78
COCCCNC(=O)CSc1nc2cc(S(=O)(=O)N3CCCCC3)ccc2o1	1	0.1
CN(C)S(=O)(=O)c1ccc(S(=O)(=O)Nc2ccc3c(c2)oc2ccccc23)cc1	1.73	-1.17
FC(F)Sc1ccc(NC(=S)NC(c2ccccc2)c2ccccc2)cc1	0.6	-2.62
NC(=O)c1ccc(SCC(=O)OCC(=O)N2CCCC2=O)c([N+](=O)[O-])c1	0.56	0.61
COc1ccc(CNS(=O)(=O)NCc2ccc(OC)c(OC)c2)cc1	0.78	-0.24
